PINK1 expr mod – A Quantitative High throughput Screen to Identify Chemical Modulators of PINK1 Expression; Potency, µM (top dose mostly 76.6 µM), for the others: at the highest dose activation (PINK1 increase), actives largely listed as activators; 410,000 tested, 0.2% active; PINK1 immunofluorescence, high-content cytometry, 24 h; AID 624263, 2012; active = well fitted activation curve with a large enough effect; inconclusive = small, poorly fitted or top-dose-only effect; inactive = flat fitted curve, though single readings scatter; cell line not stated here;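 note: potency is the fitted concentration of half-maximal effect; % of control where 0% means no effect; nearly all actives have a fitted effect of over 65% in size; a mitochondrial uncoupler was the plate control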
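Readout is PINK1 immunofluorescence, quantified alongside mitochondrial, cell and nuclear markers by laser-scanning microplate cytometry. Cells from a stable line were exposed to compound titrations (5 concentrations) for 24 hours, with CCCP controls.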
D2 agonist – Beta-Arrestin HTS for Positive Allosteric Modulators of the Human D2 Dopamine Receptor: Agonists; D(2) dopamine receptor (Homo sapiens), P14416; DiscoveRx PathHunter D2 beta-arrestin, luminescence, 90 min; 100% = 57 uM dopamine signal; activation, % (concentration not given with the values); 360,000 tested, 0.084% active; in the data active = activation above about 40%; inconclusive = about 15% to 40%; inactive = below about 15%; note: compound concentration not given in the record; the text of the record calls up to 30% inactive
Target sequence (P14416 whole entry, looked up): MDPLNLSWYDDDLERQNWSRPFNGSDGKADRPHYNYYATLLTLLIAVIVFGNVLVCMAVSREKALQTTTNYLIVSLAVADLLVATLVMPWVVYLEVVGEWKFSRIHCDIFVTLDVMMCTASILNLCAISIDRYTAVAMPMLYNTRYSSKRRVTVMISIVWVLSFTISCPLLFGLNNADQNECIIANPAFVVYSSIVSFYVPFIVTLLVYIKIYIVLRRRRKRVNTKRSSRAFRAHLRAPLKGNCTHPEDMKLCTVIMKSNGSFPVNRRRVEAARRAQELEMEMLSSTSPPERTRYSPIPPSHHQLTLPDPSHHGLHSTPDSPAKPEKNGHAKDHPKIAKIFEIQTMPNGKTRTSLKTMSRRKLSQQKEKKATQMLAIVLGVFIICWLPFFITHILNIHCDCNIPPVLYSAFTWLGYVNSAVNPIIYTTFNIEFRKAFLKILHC
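DiscoveRx PathHunter D2 beta-arrestin cells (2,100/well) attached overnight, then compound-stimulated 90 min at 37 C in HBSS/10 mM HEPES/0.1% Tween-20 buffer; beta-galactosidase complementation read by luminescence after 1 h at ambient temperature. Dopamine 57 uM final (EC100) as control.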
Six1-Eya2 inh – qHTS Assay for Inhibitors of the Six1/Eya2 Interaction | Homeobox protein SIX1 (Homo sapiens) + Protein phosphatase EYA2 (Homo sapiens), … | AlphaScreen GST-Six1/His-Eya2 binding, biochemical; active compounds read low; control for the full effect not named in the record | activity change, % (concentration not given with the values) | 360,000 tested, 0.56% active | AID 651725, 2012; in the data active = activity change below about -65%; inconclusive = about -30% to -65%; inactive = above about -30%; note: % is set by controls: 0 for no effect and ±100 for the full control effect
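Homogeneous AlphaScreen proximity assay pairing GST-Six1 with His-tagged Eya2 (added as 5X mix: 250 nM and 500 nM) in 50 mM Tris pH 8.0, 300 mM NaCl, 1 mM TCEP. Glutathione donor and nickel acceptor beads; 1 h, 37 °C, dark.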
CtBP-E1A inh – qHTS Assay for Inhibitors of the CtBP/E1A Interaction; CtBP / adenovirus E1A interaction (AlphaScreen); AlphaScreen GST-E1A/His-CtBP binding, 1536-well; active compounds read low; control for the full effect not named in the record; activity change, % (concentration not given with the values); 340,000 tested, 0.49% active; AID 651724, 2012; in the data active means activity change below about -65%; inconclusive means about -30% to -65%; inactive means above about -30%; note: % is set by controls: 0 for no effect and ±100 for the full control effect
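Homogeneous bead-based format: GST-tagged E1A captured on glutathione donor beads, His-tagged CtBP on nickel acceptor beads; compounds precede bead addition by 2 h at 37 °C.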
TRPML1 ag – qHTS for Agonists of the Human Mucolipin Transient Receptor Potential 1 (TRPML1) | TRPML1-expressing cells, Ca2+ dye fluorescence, FDSS; host cell line not named in the record; reference of the full effect not given here | activation, % (no concentration beside the values) | 410,000 tested, 0.12% active | AID 624414, 2012; in the data active = activation above about 50%; inconclusive = about 30% to 50%; inactive = below about 30%; note: 0% is about no effect; the text of the record puts the active cut at 80%
Target sequence (Q9GZU1 whole entry, looked up): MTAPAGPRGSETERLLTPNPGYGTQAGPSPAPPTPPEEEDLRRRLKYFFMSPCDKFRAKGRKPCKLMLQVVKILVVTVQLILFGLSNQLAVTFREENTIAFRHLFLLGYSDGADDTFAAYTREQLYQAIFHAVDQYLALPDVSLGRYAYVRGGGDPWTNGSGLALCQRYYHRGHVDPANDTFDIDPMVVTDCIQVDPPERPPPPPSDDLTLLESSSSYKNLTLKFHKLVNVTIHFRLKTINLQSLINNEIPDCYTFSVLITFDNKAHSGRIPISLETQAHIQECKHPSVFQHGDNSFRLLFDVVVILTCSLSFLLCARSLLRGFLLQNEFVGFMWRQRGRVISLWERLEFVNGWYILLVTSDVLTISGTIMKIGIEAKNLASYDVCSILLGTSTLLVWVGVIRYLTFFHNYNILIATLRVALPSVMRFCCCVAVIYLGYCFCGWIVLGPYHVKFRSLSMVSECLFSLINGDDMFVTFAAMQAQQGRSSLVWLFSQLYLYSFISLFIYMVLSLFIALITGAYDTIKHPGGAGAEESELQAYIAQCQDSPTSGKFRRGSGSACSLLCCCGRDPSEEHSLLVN
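In this qHTS format, compounds were pin-transferred onto Ca8-dye-loaded TRPML1-DL cells induced with Tet overnight, and intracellular Ca2+ fluorescence was recorded kinetically for 110 s after a 10 s baseline. A subsequent 4uM final 54-4 (EC80) addition followed by a second 110 s read served as the antagonist phase.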
D2 PAM – Beta-Arrestin HTS for Positive Allosteric Modulators of the Human D2 Dopamine Receptor: Potentiators | D(2) dopamine receptor (Homo sapiens), P14416 | DiscoveRx D2 beta-arrestin cells, luminescence, 90 min; 100% = 57 uM dopamine signal | potentiation, % (no concentration beside the values) | 360,000 tested, 0.23% active; active = potentiation of 50% or more; inconclusive = 30% to 50%; inactive = 30% or less;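 note: compound concentration not given in the record; tested on top of an EC20 dose of dopamine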
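D2 cells co-treated with compound plus 50 nM dopamine (EC20) for 90 min at 37 deg C to detect potentiation. Beta-arrestin recruitment was read as enzyme-fragment luminescence after 1 h at ambient temperature. Full response was set by 57 uM dopamine.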
The depositor's hits bear a star; ? = inconclusive; . = no result given; [ ] = remark or other dose.

Order of values: PINK1 expr mod, D2 agonist, Six1-Eya2 inh, CtBP-E1A inh, TRPML1 ag, D2 PAM
Cc1c([N+](=O)[O-])c([N+](=O)[O-])nn1CC(=O)N1CCCCC1
  -0.6%, 2.3, 0, -11, 0.2, -6
CC1CCCN(C(=S)SCC(=O)c2cc(Br)cc(Br)c2O)C1 (stereo unspecified)
  9.3%, -4.5, -16, -5, 0.2, -4
COc1ccc(OC)c(NC(=O)c2ccc(-c3cccs3)cc2)c1
  1.2%, 8.5, -4, 5, -0.5, -3
O=C(/C=C/c1ccc2c(c1)OCO2)NCCSCc1ccc(Cl)cc1Cl
  -1.4%, -2.3, -18, -1, 1.0, 3
CCC(C)N(C(=O)COC(=O)CSc1ccc([N+](=O)[O-])cc1)C1CCS(=O)(=O)C1 (stereo unspecified)
  0.3%, -4.9, 12, 11, -0.4, -5
CN(C)C(=O)CN1C(=O)C2CCCCN2C(=O)c2ccccc21 (stereo unspecified)
  -0.7%, -6.0, -14, 0, -1.2, -7
COc1ccc(/C=C2\Sc3ccc(C(=O)N4CCCC4)cc3N(C)C2=O)cc1OC
  1.4%, 6.6, 4, -1, 2.0, 15
COc1cccc(NC(=S)N2CCN(c3ccc([N+](=O)[O-])cc3)CC2)c1
  -0.3%, 0.5, -1, 6, 3.5, -8
C[C@@H]1COC(=O)[C@@H](Cc2ccc(F)cc2)C/C=C\C[C@@H](CC(=O)NCCO)C(=O)N1
  0.2%, -1.4, 0, 5, 0.0, .
CC(C)C[C@H]1CN(CCCC[C@@H]2CNC(=O)C(=O)N2CC2CCCCC2)C(=O)C(=O)N1CCC1CCCCC1
  -0.7%, ., -1, 6, -0.2, .
CCc1cccc(OCCn2ccnc2)c1
  1.9%, -6.1, -6, 3, -0.1, -2
COc1cc(NC(=O)C2CCCO2)c(OC)cc1NC(=O)c1ccccc1 (stereo unspecified)
  4.0%, 0.6, -20, -8, -0.1, 4
CC[C@](C)(O)c1cc2ccccc2c(=O)o1
  6.8%, -1.8, 4, 4, -0.4, -2
Cc1cccn2c(=O)c(/C=C(\C#N)S(=O)(=O)c3ccccc3)c(N3CCN(c4ccccc4)CC3)nc12
  1.4%, 0.5, -11, ., 0.3, -6
Cc1ccc(OCC(=O)OCC(=O)c2ccccc2)cc1C
  0.5%, -0.5, 15, 1, 1.7, -7
COc1ccc(-n2c(CCc3ccccc3)nnc2SCC(=O)NCc2ccccc2)cc1
  -0.7%, -3.3, 3, -5, 1.8, -13
Cc1cc(=O)oc2cc(OCC(=O)N3CCCC3)c(Cl)cc12
  1.9%, -2.6, -3, 9, 0.1, -4
CC(=O)NCc1ccc(-c2nc3ccccc3s2)cc1
  -1.1%, -0.2, -6, ., 0.3, -10
CCn1c(-c2ccccc2)csc1=Nc1ccc(S(=O)(=O)O)cc1
  5.3%, 0.9, -13, -8, -0.2, 2
O=C(O)c1cccc(S(=O)(=O)Nc2ccccc2-c2ccccc2)c1
  -2.3%, 3.2, -5, ., 3.0, 13
CC1(C(=O)NS(=O)(=O)c2ccc(F)cc2F)CCN1C(=O)Cc1cc(F)ccc1F (stereo unspecified)
  0.0%, -5.6, 0, 5, -0.8, -2
Cc1ccc(OCCCSc2n[nH]c(N)n2)cc1
  6.1%, -1.9, 5, 0, 2.1, -2
CCOC(=O)COc1ccccc1/C=N\NC(=O)c1cc2c(ccc3ccccc32)o1
  0.5%, -4.1, -5, -20, 1.6, 8
Cc1c(NC(=S)SCc2ccccc2)c(=O)n(-c2ccccc2)n1C
  24%, -8.2, 7, 1, -0.2, -6
Clc1ccc(CNc2ccccn2)cc1
  -0.1%, -5.8, -4, 8, 0.7, -13
Cn1c(=O)c2c(nc(-c3ccccc3)n2C)n(Cc2ccccc2)c1=O
  7.1%, 1.7, 0, -15, 0.5, 0
COc1ccc(C(=O)Oc2ccc(/C=N/O)cc2)cc1
  ., -2.0, -5, -2, 0.0, -6
CCn1c2ccccc2c2cc(NC(=O)COC(=O)c3ccccc3O)ccc21
  5.6%, -3.8, -1, 5, 0.6, -11
COCCCn1c(=O)c2ccccc2n(Cc2ccccc2)c1=O
  0.7%, -4.3, 6, 14, -0.6, -8
CCOc1ncccc1C(=O)Nc1ccc(-c2ccc3nnc(C)n3n2)cc1
  0.6%, -4.3, -5, -13, 0.5, -8
N#C/C(=C\c1ccccc1)C(=O)N1CCC(C(N)=O)CC1
  4.4%, -1.7, 9, -1, 0.1, -4
COc1ccccc1NC(=O)C(=O)N(c1cccnc1)C(C(=O)NC(C)(C)C)c1ccccc1F (stereo unspecified)
  0.5%, -3.9, 1, -3, -0.4, -6
O=C(NNC(=O)c1ccccc1[N+](=O)[O-])c1ccccc1[N+](=O)[O-]
  1.6%, -5.6, -9, -6, 0.3, 2
COc1ccc(CCNC(=O)CSc2nc3[nH]ncc3c(=O)[nH]2)cc1OC
  1.8%, -2.0, -1, 6, -0.1, -7
Cc1sc2nc(SC(C)C)nc(N)c2c1C
  -2.3%[38.3 µM], 0.0, 0, -11, 0.8, -3
Nc1ccc(S(=O)(=O)Nc2nccs2)cc1N=Nc1ccccc1[N+](=O)[O-]
  0.9%, 6.4, ?, -26, 2.2, 20
CCCCc1nc2cc(Cl)ccc2o1
  0.7%, 0.5, 0, 10, 0.4, -3
O=C(CSc1nnc(C2COc3ccccc3O2)o1)N1CCCCC1 (stereo unspecified)
  -2.7%, -2.5, 3, -2, 1.1, -5
O=C1c2ccccc2C(=O)N1CCCCCCN1C(=O)c2ccccc2C1=O
  0.7%, -2.1, -7, 6, -1.3, -6
O=C(O)C1C2CCCCC2=C2CCCCC2C1C(=O)Nc1nccs1 (stereo unspecified)
  3.4%, 4.1, 2, -7, 1.3, 15
Cc1cccc(-n2c(SCC(=O)NCC3CCCO3)nc3ccccc3c2=O)c1C (stereo unspecified)
  0.4%, -2.0, -5, ., -1.6, -2
Cc1cc(C(=O)Nc2cccc3ccccc23)n(-c2ccccc2)n1
  0.7%, 1.7, 5, 5, 0.3, -1
Cc1cc(=O)[nH]c(N/N=C/c2ccc(O)c(O)c2)n1
  1.5%, -2.5, ?, ?, -0.3, 11
CC(=O)Nc1sc2c(c1C(N)=O)CCN(Cc1ccccc1)C2
  2.9%, -2.6, 6, -11, 5.5, -19
O=C(CCN1C(=O)C2C3C=CC(C3)C2C1=O)Nc1nccs1 (stereo unspecified)
  15%, -2.6, -6, -1, -0.8, -9
COC(=O)[C@@]1(Cc2ccccc2)[C@H]2C(=O)N(Cc3ccccc3)C(=O)[C@H]2[C@H]2CN=C(SCc3ccc(Cl)cc3)N21
  -1.8%, -1.1, -9, -7, 3.1, -11
O=C(COc1ncnc2ccccc12)N1CCN(c2ccccc2)CC1
  1.1%, -3.3, 7, 10, -0.5, -5
NS(=O)(=O)c1ccc(NC(=O)CSC2CCCCC2)cc1
  0.6%, -0.9, -4, 3, -0.1, -2
CCOC(=O)C1/C(=N\O)CC(C)(O)C(C(=O)OCC)C1c1ccc(N(C)C)cc1 (stereo unspecified)
  1.9%, 1.3, 7, 3, -0.5, ?
CCCCNC(=O)CN(CCc1ccccc1)S(C)(=O)=O
  0.5%[38.3 µM], -2.3, 1, 3, -0.6, -10
COc1ccc(CN=C(Nc2ccccc2)SC2CC(=O)NC2=O)cc1 (stereo unspecified)
  0.7%, -8.5, -4, -9, 1.0, -3
Cc1cc(=O)oc2cc(OCC(=O)N/N=C/c3ccccc3[N+](=O)[O-])ccc12
  0.5%, -6.3, ?, -23, -0.4, -3
CC(C)c1nc2sc(C(=O)O)c(N)c2c2c1CCCC2
  -1.0%, -2.1, -1, -1, 3.2, -6
COc1ccc(CC(=O)N/N=C/C=C/c2cccc([N+](=O)[O-])c2)cc1OC
  1.4%, 1.2, -24, -9, 0.8, -13
c1ccc(-c2nc3ccccc3nc2-c2ccccn2)nc1
  -1.6%[38.3 µM], -2.0, -13, -9, 1.0, 15
Cc1cc(C)c(S(=O)(=O)N(C2=NCCS2)S(=O)(=O)c2c(C)cc(C)cc2C)c(C)c1
  ?, -1.3, -6, 5, -0.4, -8
O=C1CSC(c2cn(-c3ccccc3)nc2-c2ccccc2)N1Cc1ccco1 (stereo unspecified)
  -2.0%, -3.3, -19, -18, 0.9, -11
COc1ccc(C(C)=O)cc1CSCC(=O)O
  0.4%, 5.6, 2, -9, 0.2, 10
O=C(NCCc1ccco1)c1cc(COc2cccc(C(F)(F)F)c2)on1
  2.7%, -1.5, -1, 4, 3.8, -21
O=C/C(=C\Nc1ccc(S(=O)(=O)CCO)cc1)c1nc2cc(Cl)ccc2o1
  0.2%, -1.6, -6, -13, 0.3, -3

Record cards, from the list above. Order of screens: PINK1 expr mod	D2 agonist	Six1-Eya2 inh	CtBP-E1A inh	TRPML1 ag	D2 PAM
COC(=O)[C@@]1(Cc2ccccc2)[C@H]2C(=O)N(Cc3ccccc3)C(=O)[C@H]2[C@H]2CN=C(SCc3ccc(Cl)cc3)N21 in the list: -1.8%	-1.1	-9	-7	3.1	-11
O=C(O)c1cccc(S(=O)(=O)Nc2ccccc2-c2ccccc2)c1 in the list: -2.3%	3.2	-5	.	3.0	13
C[C@@H]1COC(=O)[C@@H](Cc2ccc(F)cc2)C/C=C\C[C@@H](CC(=O)NCCO)C(=O)N1 in the list: 0.2%	-1.4	0	5	0.0	.
Cc1c(NC(=S)SCc2ccccc2)c(=O)n(-c2ccccc2)n1C in the list: 24%	-8.2	7	1	-0.2	-6

Next part:
Order of values: PINK1 expr mod, D2 agonist, Six1-Eya2 inh, CtBP-E1A inh, TRPML1 ag, D2 PAM
COc1ccc(NC(=O)COC(=O)C2CC(=O)N(Cc3ccc(C)cc3)C2)cc1 (stereo unspecified)
  2.8%, 1.7, 5, 27, -0.2, 1
COc1cc(NC(=O)CCCNC(=O)Cn2cnc3sc(C)c(C)c3c2=O)cc(OC)c1OC
  1.8%, -6.4, -2, -9, -0.3, 2
Cc1ccc(-n2nnc3c(=O)n(CC(=O)NCc4ccco4)cnc32)cc1
  10%, -1.2, -6, -2, -0.8, 0
CC(C)c1ccc(C2NC(=O)NC3=C2CCc2ccccc23)cc1 (stereo unspecified)
  4.9%, 3.1, -8, -6, 2.0, 10

Copied from the list:
COc1ccc(C(=O)Oc2ccc(/C=N/O)cc2)cc1 in TRPML1 ag shows 0.0
Cc1ccc(OCCCSc2n[nH]c(N)n2)cc1 in PINK1 expr mod shows 6.1%
CC(C)C[C@H]1CN(CCCC[C@@H]2CNC(=O)C(=O)N2CC2CCCCC2)C(=O)C(=O)N1CCC1CCCCC1 in CtBP-E1A inh shows 6
Cc1cc(C)c(S(=O)(=O)N(C2=NCCS2)S(=O)(=O)c2c(C)cc(C)cc2C)c(C)c1 in TRPML1 ag shows -0.4
